Assay outcomes: PubChem BioAssay, National Center for Advancing Translational Sciences (NCATS)
Cruzain Triton – cruzain (T. cruzi) inhibition with detergent | purified cruzain, Z-FR-AMC fluorescence, 0.01% Triton | Potency, µM, for the others: max response, negative = inhibition, most hits filed as inhibitors | 200,000 compounds, 0.43% hits;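 note: plate controls were neutral wells for no effect and buffer without enzyme for full effect; nearly all actives have a fitted effect of over 40% in size; top concentration of the series not given in the record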
Target sequence (P25779 123-467 limits assumed): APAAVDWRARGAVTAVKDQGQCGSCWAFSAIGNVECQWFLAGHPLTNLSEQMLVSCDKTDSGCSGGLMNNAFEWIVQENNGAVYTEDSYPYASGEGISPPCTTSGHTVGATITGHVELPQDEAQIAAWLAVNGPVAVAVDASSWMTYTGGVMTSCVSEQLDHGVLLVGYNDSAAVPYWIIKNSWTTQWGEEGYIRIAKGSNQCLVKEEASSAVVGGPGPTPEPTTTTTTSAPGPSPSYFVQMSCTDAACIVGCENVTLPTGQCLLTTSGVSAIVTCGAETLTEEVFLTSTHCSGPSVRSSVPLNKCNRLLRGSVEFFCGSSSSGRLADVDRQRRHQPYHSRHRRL
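Compounds were screened in titration against cruzain (1.5 nM) with 0.01% Triton X-100 to counter colloidal aggregation. Activity was the AMC fluorescence increase over 60 s after adding 2 uM Z-FR-AMC at pH 5.5.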
Cruzain noTriton – inhibitors of Trypanosoma cruzi cruzain without detergent; P25779; purified cruzain, Z-FR-AMC fluorescence, no detergent; Potency, µM, without a hit: max response, negative = inhibition, usual class: inhibitors; 200,000 compounds, 2.3% hits; AID 1476;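 note: plate controls were enzyme without inhibitor for no effect and buffer without enzyme for full effect; nearly all actives have a fitted effect of over 40% in size; top concentration of the series not given in the record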
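Detergent-free condition (0.00005% Triton X-100) in acetate buffer pH 5.5 with DTT. 1.5 nM enzyme and compound were pre-mixed 15 min, then 2 uM Z-FR-AMC substrate added; reaction progress from fluorescence change between first and third reads (60 s).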
2A StopGo – FMDV 2A StopGo reporter, luciferase signal; human cells with a luciferase reporter of 2A StopGo recoding; control for the full effect not named in the record; Potency, µM (top dose mostly 57.9 µM), inactives show top-dose signal change, negative = less light; 410,000 compounds, 1.2% hits; active = well fitted falling curve with a large enough effect; inconclusive = small, poorly fitted or top-dose-only effect; inactive = no such curve, though single readings can be large or run the other way; tested in HEK293T cells; note: nearly all actives have a fitted effect of over 45% in size; luciferase light after 4 h
Starred values were filed as active, the others as inactive; ? = inconclusive; & = joins results of further samples; [ ] = remark or other dose. Unless noted, calls come from the whole dose curve; as a rule, active = well fitted curve in the direction sought with a large enough effect; inconclusive = small, poorly fitted or top-dose-only effect, or another doubt; inactive = no such curve, though single readings can be large; an effect the other way counts as inactive or inconclusive. Unless noted, % is set by controls: 0 for no effect and ±100 for the full control effect; potency is the fitted concentration of half-maximal effect. This is a subset; count on the stated rates, not on these rows.

SMILES	Cruzain Triton	Cruzain noTriton	2A StopGo
CCc1cccc(C)c1N(C(=O)CCl)C(C)COC (stereo not drawn)	4.0%	2%	-3%
CN(C)CCCSC(=N)N	1.0%&-0.6%	-7%&-1%	-23%&-3%
OCC1OC(n2cnc3c(Cl)ncnc32)C(O)C1O (stereo not drawn)	0.8%	-4%	-11%
O=C(OC1Cc2c(O)cc(O)cc2OC1c1cc(O)c(O)c(O)c1-c1c(C2Oc3cc(O)cc(O)c3CC2OC(=O)c2cc(O)c(O)c(O)c2)cc(O)c(O)c1O)c1cc(O)c(O)c(O)c1 (stereo not drawn)	-18%	-11%	-17%
CCCCCCCC/C=C\CCCCCCCC(=O)OCC(CO)OC(=O)CCCCCCC/C=C\CCCCCCCC (stereo not drawn)	7.0%	16%	5%[6.7 µM]
O=C(Oc1ccccc1)N1CCC2(CC1)CN(c1ccncc1)C2	3.3%	-12%	-13%
CC(C)(O)[C@@H]1CCC[N+]2(C)CCCC[C@H]12 (stereo partly drawn)	3.7%	-9%	-10%
c1ccc2cc(C3=NCCN3)ncc2c1	-3.8%	-1%	-1%
CCCCCCCCCCCCCC(=O)N[C@H](C)[C@@H](O)c1ccccc1	1.5%	-2%	-15%[6.7 µM]
CS(=O)(=O)N1CCC2(CCN(Cc3ccc(C#N)cc3)CC2)CC1	3.8%	-1%	-10%
O=S1OCC2C(CO1)C1(Cl)C(Cl)=C(Cl)C2(Cl)C1(Cl)Cl (stereo not drawn)	2.8%&-3.2%	-14%&3%	-12%
CC(=O)NCCNc1nc(-c2ccccc2C)nc2ccccc12	-0.8%	2%	-3%
C/C=C(/C)C(=O)OC1CC[C@]2(C)C3CCC4[C@]5(O)CC(O)[C@]6(O)C(CN7CC(C)CCC7[C@]6(C)O)[C@]5(O)C[C@@]42O[C@]13O (stereo partly drawn)	7.4%	-5%	8%
c1cn(-c2cc(-c3ccc4c(c3)OCO4)ncn2)cn1	-9.0%	6%	2%
C[C@@H]1OC(OC2CC[C@@]3(C)C(CC[C@@]4(C)C3CC=C3C5CC(C)(C)CC[C@]5(C(=O)OC5OCC(O)[C@@H](O)[C@@H]5OC5O[C@@H](C)[C@H](O[C@H]6OC(CO)C(O)C(O)C6O)C(O)C5O)C(O)C[C@@]34C)C2(C)C)C(O)C(O)[C@H]1OC1OCC(O)C(O)[C@H]1O (stereo partly drawn)	-0.7%	?	?
COc1cc(O)c2c(=O)cc(C)oc2c1CC=C(C)C	-7.4%&-5.4%	-18%&11%	-5%&-3%
CCNc1ncc2nc(-c3cc(F)cc(F)c3)c(=O)n(CCC#N)c2n1	12%	28%	-10%
O=C(c1ccco1)N1CCC2(CCCN(c3ccncc3)C2)CC1	-0.4%	-5%	-24%
Clc1ccc(C2=CCC[C@H]3CC[C@@H]2N3)cn1	0.3%	4%	-1%
COc1ccccc1CN1CCC2(CC1)CCN(C(=O)c1ccncc1)CC2	5.0%	-1%	-15%
CN(C)c1ncc2ncc(=O)n(Cc3cccs3)c2n1	-6.8%	-14%	-23%
CCC(/C=C/C(C)C1CCC2C3CCC4=CC(=O)CC[C@@]4(C)C3CC[C@@]12C)C(C)C (stereo partly drawn)	-1.2%	5%	2%
O=c1cnc2cnc(N3CCOCC3)nc2n1C[C@H]1CCCO1	-9.8%	-7%	-9%
COc1ccc(NC(=O)N2CC3(CCNCC3)C2)cc1	3.8%	0%	20%
O=c1cnc2cnc(N3CCNCC3)nc2n1Cc1cccs1	0.5%	-15%	-1%
CN=C(NC#N)NCCSCc1csc(N=C(N)N)n1	?	?	-18%
O=c1cnc2cnc(Oc3cccc(Cl)c3)nc2n1C1CC1	-2.9%	-11%	-16%
COc1cc(COc2cc(N)c(Cl)cc2C(=O)CCC2CCN(CCNS(C)(=O)=O)CC2)cc(OC)c1	-4.6%	1%	-4%&-9%
CC1(C)CC[C@]2(C(=O)O)CC[C@@]3(C)C(=CCC4[C@@]5(C)CCC(O)C(C)(C)C5CC[C@@]43C)C2C1 (stereo partly drawn)	6.0%	-1%	17%
O=c1c(-c2cc(F)cc(F)c2)nc2cnc(N3CCNCC3)nc2n1Cc1cccs1	-17%	8%	-5%
COc1cccc(Cn2c(=O)c(-c3cccc(F)c3)nc3cncnc32)c1	2.4%	-3%	-21%
CN1CCN(c2ccnc(-c3ccoc3)n2)CC1	4.8%	-6%	-7%
CC[N+](CC)(CCCNC1=CC(=O)C(NCCC[N+](CC)(CC)Cc2ccccc2)=CC1=O)Cc1ccccc1	-4.0%	3%	-5%&4%
CCNCCCNCCCNCCCNCC	-7.3%	-3%	-2%
Cc1nc2cnc(N3CCN(C)CC3)nc2n(Cc2cccs2)c1=O	-4.9%	0%	-12%
CN(C)Cc1ccccc1-c1ccc2ncnc(NCc3ccccc3)c2c1	1.4%	0%	-13%
COc1ccc2[nH]cc(CCNc3cc(-c4c(C)noc4C)ncn3)c2c1	-4.7%	-12%	-16%
NP(N)(=O)NC(=O)c1ccc(F)cc1	2.0%	-6%	-4%
N#CCCn1c(=O)c(-c2ccc(Cl)cc2)nc2cnc(N3CCOCC3)nc21	5.4%	16%	1%
COc1ccc2[nH]cc(CCNc3ncnc4ccc(-c5ccccc5CN(C)C)cc34)c2c1	-2.6%	1%	-2%
COc1ccc2[nH]cc(CCNc3ncnc4ccc(-c5ccccc5C#N)cc34)c2c1	-10%	-7%	-23%
COc1cccc(Cn2c(=O)cnc3cncnc32)c1	2.7%	-6%	-2%
O=c1cc(-c2ccccc2)oc2c(O)c(O)ccc12	2.9%	3%	-7%
CC(C)NC(=O)N1CCCC2(CCN(C(=O)c3cc(C(F)(F)F)cc(C(F)(F)F)c3)CC2)C1	4.1%	?	-8%
Cc1cnc(CNc2ncncc2-c2ccc(C(=O)N(C)C)cc2)cn1	3.9%	2%	-18%
COc1cc(C/C=C\c2ccccc2)c(OC)cc1O	-6.0%	1%	-5%
Cn1nnnc1SCC1=C(C(=O)O)N2C(=O)C(NC(=O)C(OC=O)c3ccccc3)C2SC1 (stereo not drawn)	0.9%	?	32%[activator]
COC(=O)C(CN)c1c[nH]c2ccc(OC)cc12 (stereo not drawn)	2.9%	-2%	3%
COC1C(O)C(CO)OC1n1cnc2c(=O)[nH]c(N)nc21 (stereo not drawn)	4.7%	-5%	4%
c1ccc(C(c2ccccc2)N2CC[C@@]3(CCCNC3)C2)cc1	-1.2%	-6%	-4%
CC(C)CCCC(C)C1CCC2C3CC=C4CC(O)CC[C@@]4(C)C3CC[C@@]12C (stereo partly drawn)	0.6%	1%	-7%
O=C1C=C2C(=CCOC2O)O1 (stereo not drawn)	0.2%	-5%	14µM*
COc1ccc(C(=O)N(O)c2ccccc2)cc1	2.7%	-14%	3%
COc1ccc2[nH]cc(CC(N)C(=O)O)c2c1 (stereo not drawn)	-3.5%	4%	-12%
CCCCCCCCCCCCCCCC(=O)OC[C@H](COP(=O)([O-])OCC[N+](C)(C)C)OC(C)=O	-1.2%	?	-1%[6.7 µM]
COCCn1c(=O)c(C)nc2cnc(Oc3ccccc3)nc21	-1.9%	6%	-17%
COCC(=O)N1CCC2(CCCN(Cc3ccccc3)C2)CC1	3.0%	0%	-6%
COC(=O)N1CCC2(CC1)CCN(C(c1ccccc1)c1ccccc1)CC2	2.4%	12%	-19%
COc1ccc2c(c1)OC/C(=C\c1ccc(OC)c(O)c1)C2=O	-20%	20%	17%
CN1C2CC(OC(=O)C(CO)c3ccccc3)CC1C(O)C2 (stereo not drawn)	1.0%	-2%	-3%

(next part)
SMILES	Cruzain Triton	Cruzain noTriton	2A StopGo
O=c1c(CCc2ccccc2)nc2cnc(N3CCNCC3)nc2n1Cc1cccs1	-4.1%	?	-1%
O=C(Oc1ccccc1)N1CCC2(CC1)CCN(c1ccncc1)CC2	1.6%	9%	-8%
CC(=O)N1CC[N+](C)(C)CC1	5.4%	4%	-3%&-9%
CS(=O)(=O)N1CCC2(CCCN(c3ncccn3)C2)CC1	0.2%	3%	2%
N#Cc1cccc(-c2nc(NCc3cccs3)c3ccccc3n2)c1	-2.9%	26%	-19%
Clc1ccc(C2CC3CCC2N3)cn1 (stereo not drawn)	1.5%	-3%	-14%
COc1ccc(-c2nc3cnc(N4CCNCC4)nc3n(Cc3cccc(OC)c3)c2=O)cc1	0.9%	0%	3%
O=C1CC[C@@]23/C=C/C(=O)NCCCCNCCCNC(=O)/C=C/c4ccc(c2c4)OC3C1 (stereo partly drawn)	-4.4%	-2%	8%
COc1ccc(C(=O)N2CCC3(CCCN(Cc4ccncc4)C3)CC2)cc1	5.5%	-7%	-12%
Cn1cccc1C(=O)N1CCC2(CCCN(c3cccc(-c4ccccc4)c3)C2)CC1	-1.4%	18%	-10%
CS(=O)(=O)N1CCC2(CC1)CN(c1ccccc1)C2	-1.4%	-7%	2%
CC1C(=O)OC2C(O)C34C5OC(=O)[C@@]3(OC3OC(=O)[C@H](O)[C@]34C(C(C)(C)C)C5O)[C@]12O (stereo partly drawn)	-2.1%	-15%	3%
COc1ccc(NC(=O)N2CCC3(CC2)CCN(S(C)(=O)=O)CC3)cc1	4.5%	1%	14%
COc1ccc(Oc2ncc3nc(-c4ccc(F)cc4)c(=O)n(C[C@H]4CCCO4)c3n2)cc1	-4.5%	-1%	?
CN(Cc1ccco1)c1ccnc(-c2cccc(C#N)c2)n1	-14%	-1%	24%

Another view of 4 compounds above:
COc1ccc(-c2nc3cnc(N4CCNCC4)nc3n(Cc3cccc(OC)c3)c2=O)cc1
  Cruzain Triton = 0.9%; Cruzain noTriton = 0%; 2A StopGo = 3%
CS(=O)(=O)N1CCC2(CC1)CN(c1ccccc1)C2
  Cruzain Triton = -1.4%; Cruzain noTriton = -7%; 2A StopGo = 2%
CC(=O)N1CC[N+](C)(C)CC1
  Cruzain Triton = 5.4%; Cruzain noTriton = 4%; 2A StopGo = -3%&-9%
CN(Cc1ccco1)c1ccnc(-c2cccc(C#N)c2)n1
  Cruzain Triton = -14%; Cruzain noTriton = -1%; 2A StopGo = 24%

The results go on:
SMILES	Cruzain Triton	Cruzain noTriton	2A StopGo
CC1(C)CC2/C(CO)=C/C=C/[C@](C)(O)CC[C@]21O (stereo partly drawn)	5.3%	11%	-7%
COc1ccccc1-c1ccc2ncnc(N3CCOCC3)c2c1	-3.9%	-11%	?
CCNc1ncc2ncc(=O)n(CCc3ccccc3)c2n1	-3.7%	6%	-18%
N#Cc1cccc(-c2ccc3ncnc(NCc4cccnc4)c3c2)c1	-9.8%	-20%	-22%
CC(C)CC(NC(=O)OCC1c2ccccc2-c2ccccc21)C(=O)O (stereo not drawn)	-3.2%	?	34%[activator]
COc1ccc(Oc2ncc3nc(-c4ccc(Cl)cc4)c(=O)n(C4CC4)c3n2)cc1	0.0%	3%	-9%
CN1CC[C@@]23CCCCC2C1Cc1ccc(O)cc13 (stereo partly drawn)	2.6%	-1%	-12%
COc1ccccc1CNc1ccnc(-c2cccnc2)n1	-4.4%	-1%	?
Cc1cnc(CNc2ccnc(-c3ccc(C(=O)N(C)C)cc3)n2)cn1	-2.5%	3%	27%
C/C1=C/CC(C)(C)/C=C/C/C(C)=C/CC1	-1.0%	-4%	-13%
C=CCN1CCN(c2nc3ccccc3nc2C#N)CC1	-3.3%	6%	-11%&-10%
CC(=O)OCC1OC(Oc2cc(OC(C)=O)c3c(=O)cc(-c4ccc(OC(C)=O)cc4)oc3c2)[C@@H](OC(C)=O)C(OC(C)=O)C1OC(C)=O (stereo partly drawn)	-1.8%	?	4%
COc1ccc(-c2cc(=O)c3c(OC(C)=O)cc(OC(C)=O)cc3o2)cc1	-9.2%	15%	21%
CC1=C(O)C(=O)C=C2C1=CC=C1[C@]2(C)CC[C@@]2(C)C3C[C@](C)(C(=O)O)CC[C@@]3(C)CC[C@@]12C (stereo partly drawn)	-9.9%	-2%	4µM*
NC(N)=NCCCCCCCCCCN=C(N)N	-0.1%	0%	?
CC(=O)N1CCC2(CCCN(c3ccncc3)C2)CC1	0.4%	4%	-1%
O=c1c(-c2cccc(F)c2)nc2cncnc2n1-c1ccccc1	-10%	-13%	-1%
Nc1ncnc2c1ncn2[C@@H]1O[C@H](COP(=O)(O)OP(=O)(O)O)[C@@H](O)[C@H]1O	4.7%	-3%	23%
N[C@H](Cn1ccc(=O)n(Cc2ccccc2C(=O)O)c1=O)C(=O)O	5.0%	-5%	3%

Shown with values under each structure: part of the list above
Each structure is followed by: Cruzain Triton	Cruzain noTriton	2A StopGo
- O=c1c(-c2cccc(F)c2)nc2cncnc2n1-c1ccccc1
    -10%	-13%	-1%
- Nc1ncnc2c1ncn2[C@@H]1O[C@H](COP(=O)(O)OP(=O)(O)O)[C@@H](O)[C@H]1O
    4.7%	-3%	23%
- N[C@H](Cn1ccc(=O)n(Cc2ccccc2C(=O)O)c1=O)C(=O)O
    5.0%	-5%	3%
